Screens from PubChem.
Autofluor counter: compound fluorescence in toxin protease inhibitor counterscreen; fluorescence intensity (no concentration beside the values); 360,000 compounds, 3.1% hits; compound autofluorescence counterscreen, microsphere flow cytometry; stronger effect = higher value;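 active means at least 3 SD above the mean of all compounds, about 16000 in these data; inconclusive means too few beads counted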;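 further: 100 nL of 1 mM stock went into each well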
BJeLR viability: kills HRASV12-expressing BJeLR cells | BJeLR (HRASV12) viability, CellTiter-Glo ATP luminescence, 48 h; reference of the scale not given here | inhibition, % (test concentration not listed) | 300,000 compounds, 0.17% hits | AID 1554;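 active means replicate mean above 50%; inconclusive means above 50% but judged a plate artefact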;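 further: 50 nL library stock added to about 25 µL; numbers are from one replicate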
PrP UTR inh: inhibition of PrP 5' UTR reporter expression; inhibition, % (concentration not given with the values); 340,000 compounds, 0.35% hits; cell-based PrP 5' UTR mRNA reporter, plate reader; AID 488862;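 active means every replicate at 50% or more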;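 further: 0 = median of the neutral control wells; tested in H4 reporter cells; numbers are from one replicate; inactives centre near -14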
Active calls of the source: *; ? = inconclusive; . = not tested or not shown.

SMILES	Autofluor counter	BJeLR viability	PrP UTR inh
Nc1nnc(CC(=O)N/N=C/c2ccc(-c3ccc(F)cc3)o2)s1	4152	-12.3	.
O=C(c1ccc(CNc2c(N3CCCC3)c(=O)c2=O)cc1)N1CC=C(c2ccccc2)CC1	4759	-3.6	.
C(=N\NCc1ccccc1)/c1ccc2nccnc2c1	5971	4.5	.
COC(=O)c1ccc(COc2ccc(/C=N/NC(=O)C(=O)Nc3ccc(OC)cc3)cc2OC)o1	6468	-7.1	.
CC(=C/c1ccco1)/C=N/NC(=O)c1ccncc1	3676	-2.0	.
COc1ccc(/C=N/NC(=O)Cn2cnc3c2c(=O)n(C)c(=O)n3C)c(OC)c1OC	4500	6.7	.
CCOC(=O)C1=C(N)n2c(s/c(=C\c3ccco3)c2=O)=C(C(=O)OCC)C1c1ccco1 (stereo unspecified)	10725	12.4	.
CO/N=C(/C(=O)N[C@@H]1C(=O)N2C(C(=O)O)=CCS[C@H]12)c1cnc(N)s1	4077	-0.8	.
COc1cccc(/C=N/NC(=O)c2[nH]nc3c2CCc2ccccc2-3)c1	4423	30.0	.
CCCOc1ccc(CCC(=O)N/N=C/c2ccco2)cc1	6413	1.7	.
NC(=O)N/N=C/c1cn(CC(=O)Nc2ccc(F)cc2)c2ccccc12	5719	-10.1	.
COc1ccc(/C=N/n2cncn2)cc1Cn1cc([N+](=O)[O-])cn1	6338	3.5	.
Cn1c(=O)[nH]c(=O)c2c1nc(N/N=C/c1ccncc1)n2Cc1ccc(F)cc1	3953	-1.7	.
Cc1ccc(/C=N/N(C)S(=O)(=O)c2ccc(C)cc2)cc1	3218	2.4	.
CCOC(=O)c1c(NC(=S)Nc2ccc(Cl)cc2)sc(C)c1C	8069	-3.9	.
CC(=O)NC1CCCN(O)C(=O)/C=C(\C)CCOC(=O)C(NC(C)=O)CCCN(O)C(=O)/C=C(\C)CCOC(=O)C(NC(C)=O)CCCN(O)C(=O)/C=C(\C)CCOC1=O (stereo unspecified)	4107	-6.2	.
NC(=O)CN1C(=O)/C(=c2\sc3nc(=O)c(Cc4ccccc4)nn3c2=O)c2ccccc21	6068	-2.2	.
CN1CCc2c(sc(/N=C/c3c[nH]c4ccccc34)c2C(N)=O)C1	6322	1.4	.
CC(=O)Nc1sc(N/N=C/c2ccc(N(C)C)cc2)nc1-c1ccc(C)cc1	6177	0.2	.
COc1ccc(CC(=O)N/N=C/C=C/c2cccc([N+](=O)[O-])c2)cc1OC	4463	-12.6	.
O=C(N/N=C/c1cc(Cl)cc([N+](=O)[O-])c1O)c1ccccc1NS(=O)(=O)c1cccs1	4327	3.7	.
O=C(N/N=C/c1ccc(O)cc1O)C1CC1	5281	-11.3	.
COc1ccc(/C(C)=N/NC(=O)C(NC(=O)c2ccccc2)c2n[nH]c(=O)c3ccccc23)c(OC)c1 (stereo unspecified)	4254	-5.3	.
N#Cc1c(/N=C/c2cccnc2)sc2c1CCCC2	6741	16.5	.
O=c1/c(=C\c2cccnc2)sc2nc3ccccc3n12	10143	1.8	.

Further compounds.
SMILES	Autofluor counter	BJeLR viability	PrP UTR inh
COc1ccc(/C=N/n2c(-c3cc(C)[nH]n3)n[nH]c2=S)cc1OC	3788	-4.1	.
COc1ccc(/C=N/NC(=O)C(=O)N2CCN(c3ccccc3OC)CC2)cc1	11230	-4.1	.
O=C1NC(=S)N/C1=C/c1cccc([N+](=O)[O-])c1O	11977	19.5	.
O=C(Oc1cc(=O)oc2c1c(=O)n1c3c(cccc23)CC1)c1ccc(F)cc1	3779	-17.5	.
CCc1n[nH]c(=S)n1/N=C/c1ccc2c(c1)OCO2	7650	3.1	.
C/C(=N\NC(=O)c1ccoc1C)c1ccccc1	5361	-0.9	.
Cc1cccc(CSc2nnc(CCNC(=O)OC(C)(C)C)o2)c1	3786	3.9	.
COc1ccc(/C=N/NC(=O)c2ccc3nc[nH]c3c2)cc1	4510	-6.8	.
O=C(NCC1CCCO1)C(=O)N/N=C/c1ccc(O)c(Cl)c1 (stereo unspecified)	4498	10.8	.
COc1ccc(OC)c(/C=N/NC(=O)CCCC(=O)Nc2cccc(Br)c2)c1	11771	-6.0	.
C/C(CC1CC(C)(C)OC1=O)=N\NC(N)=S (stereo unspecified)	4213	0.7	.
CCOc1cc(/C=N/NC(=O)c2cc(-c3cccc(OC)c3)nc3ccccc23)ccc1O	6533	0.5	.
O=C1/C(=C\c2ccco2)SC(=S)N1C1CCS(=O)(=O)C1 (stereo unspecified)	3663	-0.6	.
S=c1[nH]nc(-c2ccncc2)n1/N=C/c1cccc(Cl)c1	4595	-3.4	.
N#Cc1cccc2c1-c1ccccc1/C2=N/NC(N)=O	4015	-3.0	.
C(=N\Nc1nc(-c2cccnc2)nc2ccccc12)/c1ccccc1	4068	1.6	.
O=C1CS/C(=N/N=C/c2c[nH]c3ccccc23)N1	6823	-3.1	.
O=[N+]([O-])c1cc(/C=N/N2CCOCC2)cs1	3962	-6.1	.
CC(=O)O[C@@H]1/C=C/[C@](C)(O)C[C@@H](C)C/C=C/[C@H]2[C@H](O)[C@@](C)(O)[C@@H](C)[C@H]3[C@H](Cc4ccccc4)NC(=O)[C@@]312	5625	-5.7	.
Cc1cc(C)nc(N/N=C/c2ccccc2Cl)n1	6104	0.2	.
CC(C)Oc1ccccc1/C=N/NC(=O)C1CC1	5057	-9.1	.
Cc1cccc(NC(=O)CCC(=O)N/N=C/c2ccc(O)cc2O)c1	4006	-1.4	.
CCOc1ccc2[nH]c3c(N4CCc5ccccc5C4)ncnc3c2c1	?	2.2	.
C/C(=N\NC(=S)Nc1c(C)cccc1C)c1ccc(O)cc1	4581	3.4	.
COc1cc(/C=N/NC(=O)C(=O)NCc2ccco2)cc(Cl)c1O	4406	4.2	.

Given as a markdown table: 21 of the compounds above
| SMILES | Autofluor counter | BJeLR viability | PrP UTR inh |
| --- | --- | --- | --- |
| O=C(Oc1cc(=O)oc2c1c(=O)n1c3c(cccc23)CC1)c1ccc(F)cc1 | 3779 | -17.5 | . |
| CCc1n[nH]c(=S)n1/N=C/c1ccc2c(c1)OCO2 | 7650 | 3.1 | . |
| C/C(=N\NC(=O)c1ccoc1C)c1ccccc1 | 5361 | -0.9 | . |
| Cc1cccc(CSc2nnc(CCNC(=O)OC(C)(C)C)o2)c1 | 3786 | 3.9 | . |
| COc1ccc(/C=N/NC(=O)c2ccc3nc[nH]c3c2)cc1 | 4510 | -6.8 | . |
| O=C(NCC1CCCO1)C(=O)N/N=C/c1ccc(O)c(Cl)c1 (stereo unspecified) | 4498 | 10.8 | . |
| COc1ccc(OC)c(/C=N/NC(=O)CCCC(=O)Nc2cccc(Br)c2)c1 | 11771 | -6.0 | . |
| C/C(CC1CC(C)(C)OC1=O)=N\NC(N)=S (stereo unspecified) | 4213 | 0.7 | . |
| CCOc1cc(/C=N/NC(=O)c2cc(-c3cccc(OC)c3)nc3ccccc23)ccc1O | 6533 | 0.5 | . |
| O=C1/C(=C\c2ccco2)SC(=S)N1C1CCS(=O)(=O)C1 (stereo unspecified) | 3663 | -0.6 | . |
| S=c1[nH]nc(-c2ccncc2)n1/N=C/c1cccc(Cl)c1 | 4595 | -3.4 | . |
| N#Cc1cccc2c1-c1ccccc1/C2=N/NC(N)=O | 4015 | -3.0 | . |
| C(=N\Nc1nc(-c2cccnc2)nc2ccccc12)/c1ccccc1 | 4068 | 1.6 | . |
| O=C1CS/C(=N/N=C/c2c[nH]c3ccccc23)N1 | 6823 | -3.1 | . |
| O=[N+]([O-])c1cc(/C=N/N2CCOCC2)cs1 | 3962 | -6.1 | . |
| CC(=O)O[C@@H]1/C=C/[C@](C)(O)C[C@@H](C)C/C=C/[C@H]2[C@H](O)[C@@](C)(O)[C@@H](C)[C@H]3[C@H](Cc4ccccc4)NC(=O)[C@@]312 | 5625 | -5.7 | . |
| Cc1cc(C)nc(N/N=C/c2ccccc2Cl)n1 | 6104 | 0.2 | . |
| CC(C)Oc1ccccc1/C=N/NC(=O)C1CC1 | 5057 | -9.1 | . |
| Cc1cccc(NC(=O)CCC(=O)N/N=C/c2ccc(O)cc2O)c1 | 4006 | -1.4 | . |
| CCOc1ccc2[nH]c3c(N4CCc5ccccc5C4)ncnc3c2c1 | ? | 2.2 | . |
| C/C(=N\NC(=S)Nc1c(C)cccc1C)c1ccc(O)cc1 | 4581 | 3.4 | . |

Later entries:
SMILES	Autofluor counter	BJeLR viability	PrP UTR inh
S=c1[nH]nc(-c2ccncc2)n1/N=C/c1cn(-c2ccccc2)nc1-c1ccc(Cl)cc1	4339	-4.6	.
CC[N+](C)(CC)CCC/C(=N/O)C(O)(c1ccccc1)c1ccccc1	3807	3.2	.
COc1ccc(CNC(=O)Cc2csc(Nc3nc(=S)[nH]c4ccccc34)n2)cc1	6600	-3.3	.
COc1ccc(/C=N/n2c(=S)n(C)c3ccccc32)cc1OC	10123	6.7	.
Cc1ccc(-c2nn(-c3ccccc3)cc2/C=N/n2c(-c3cccs3)n[nH]c2=S)cc1	5436	3.7	.
CCOC(=O)c1c(NC(=S)N2CCCCC2)sc2c1CCN(C(=O)OCC)C2	?	-5.8	.
C/C(=N/O)c1cccc(N2Cc3ccccc3C2)c1	3982	6.2	.
CCOc1cccc(/C=C/c2ccc3cccc(O)c3n2)c1OC	3479	9.9	.
COCCNC(=O)c1c(N)n(/N=C/c2ccc(F)cc2)c2nc3ccccc3nc12	5687	5.6	.
c1ccc2c3c([nH]c2c1)CCNC3	3798	2.4	.
Cn1c(=O)c2c(nc(Br)n2C/C=N/NC(N)=S)n(C)c1=O	5999	0.7	.
Cc1nc2ccccc2c(=O)n1/N=C/c1cn[nH]c1-c1ccccc1	3772	-7.4	.
CCCC1(c2ccsc2)NC(=O)NC1=O (stereo unspecified)	2982	.	-27.0
Cc1ccc(S(=O)(=O)N2[C@@H](c3ccc(F)cc3)C(C(=O)O)=CC[C@H]2c2ccc(Cl)cc2)cc1	4210	.	-14.5
C=C[C@H]1CN2CC[C@H]1C[C@H]2[C@H](O)c1ccnc2ccccc12	6221	.	-9.2
CCC1(c2ccccc2)ON(c2c(Br)cccc2Br)C1=O (stereo unspecified)	3860	.	7.4
C[C@H]1CN([C@@H](C)CO)C(=O)c2cccc(NC(=O)Nc3ccc(C(F)(F)F)cc3)c2O[C@@H]1CN(C)Cc1ccc(Cl)c(Cl)c1	3740	.	-13.6
CCN1CCC(O)(/C=C/c2ccc(C)cc2)C(C(=O)/C=C/c2ccc(C)cc2)C1 (stereo unspecified)	3147	.	-21.4
NC(=O)c1cc([N+](=O)[O-])cc([N+](=O)[O-])c1	6278	.	-33.3
O=C(C[n+]1cccc(C(=O)N/N=C/c2ccc(Br)cc2)c1)c1ccccc1	3418	.	-18.4
CCOc1cc2c(cc1O)C(=NOC)CC1C2CCC2(C)C(O)CCC12 (stereo unspecified)	3805	.	-6.1
O=C1/C(=C\c2ccc(Cl)c(Cl)c2)CN(C(=O)CCN2CCOCC2)C/C1=C/c1ccc(Cl)c(Cl)c1	3705	.	-3.0
O=c1ccc2cc(OC3O[C@H](CO)[C@@H](O)[C@H](O)[C@H]3O)c(O)cc2o1 (stereo partly specified)	5940	.	-7.8
CC(=O)Nc1ccc(C=CC=Cc2cccc([N+](=O)[O-])c2)cc1	7203	.	-94.3
O=[N+]([O-])c1ccc(Cl)c(/C=N/N2CCN(C3c4ccccc4-c4ccccc43)CC2)c1	2625	.	-26.1

Additional compounds:
SMILES	Autofluor counter	BJeLR viability	PrP UTR inh
C=C1C(O)C[C@@H](C(C)C)N(CC(C)C)S1(=O)=O (stereo partly specified)	3673	.	0.0
CC(=O)OCC12CC(OC(=O)CC(C)C)C(C)=CC1OC1C(O)C(OC(C)=O)C2(C)C12CO2 (stereo unspecified)	3678	.	90.6*
CCCCN1CC(COC)Oc2cccc(F)c2S1(=O)=O (stereo unspecified)	2907	.	-17.2
Cc1ccc2c(c1)P(=O)(O)c1cc(C)ccc1O2	3699	.	-5.4
C[C@H](CO)N1C[C@H](C)[C@@H](CN(C)Cc2ccc(C(=O)O)cc2)Oc2c(NC(=O)c3ccncc3)cccc2C1=O	4005	.	-9.0
O=C(Cc1cccc(F)c1)N1CCOCC1	3896	.	-13.7
O=C(C[C@H]1C/C=C\CCC(=O)O[C@@H](c2ccccc2)CNC1=O)NCCO	3008	.	1.6
COc1ccc([C@H]2CC(=O)C=C(c3cccc4c3Oc3ccccc3S4)C2)cc1	3840	.	-4.8
COc1ccc(-c2c(-c3ccc(S(C)(=O)=O)cc3)sc3ccc(OC)cc23)cc1	4004	.	-26.7
C=CCC[C@@H](Cc1ccc(F)cc1)C(=O)OC[C@@H](C)NC(=O)[C@@H](CC=C)CC(=O)N[C@H](CO)Cc1ccccc1	4200	.	-23.2
COc1ccc2c(c1)[C@H]1[C@H](CO2)[C@H](c2ccccc2)[C@]2(C)C(=O)Nc3cc(OC)c(OC)cc3C(=O)N12	2874	.	-109.0
CCC(C)Sc1ccc([C@@H]2[C@@H]3C(=O)N(CC)C(=O)[C@@H]3[C@]3(C(=O)OC)CCCCN23)cc1OC (stereo partly specified)	3492	.	-19.6
COc1ccc(OC)c(NP2(=O)OCC(C)([N+](=O)[O-])CO2)c1 (stereo unspecified)	3953	.	-15.2

These rows are one share of the data. The share of hits here may be higher or lower than overall.
